Vaccinia mCherry – inhibitors of vaccinia virus infection (mCherry reporter signal); Potency, µM (doses to about 36.5 µM), for the others: at the highest dose activity change, negative = inhibition, most hits filed as inhibitors; Vaccinia virus mCherry reporter infection, fluorescence; about a quarter of the inactives have no number; hit rate 0.63% among 310,000; active = well fitted inhibition curve with a large enough effect; inconclusive = small, poorly fitted or top-dose-only effect; inactive = no such curve, though single readings can be large or run the other way; tested in A549 cells; also: nearly all actives have a fitted effect of over 35% in size; inactives centre near -10
VACV Venus inh – inhibitors of vaccinia virus (Venus reporter) | Vaccinia virus Venus reporter expression, fluorescence | Potency, µM (titrated, usually from 36.5 µM), for inactives: at the top dose activity change, negative = inhibition, hits mostly inhibitors | hit rate 0.46% among 330,000 | AID 720580; active means well fitted inhibition curve with a large enough effect; inconclusive means small, poorly fitted or top-dose-only effect; inactive means no such curve, though single readings can be large or run the other way; tested in A549 cells; also: nearly all actives have a fitted effect of over 30% in size; inactives centre near -10
* hit, by the source's call; i = inactive; u = inconclusive; x = not tested or not shown; [ ] = remark or other dose. % is scaled to controls: 0 for no effect and ±100 for the full control effect; potency is read from the fitted curve at half-maximal effect.

Below each compound: Vaccinia mCherry | VACV Venus inh
COCCN(C(=O)c1ccc2ccccc2c1)c1c(N)n(Cc2ccccc2)c(=O)[nH]c1=O
→ i | 0%
NC(=O)COC(=O)c1cccc(S(=O)(=O)N2CCN(c3ccc(F)cc3)CC2)c1
→ -2% | -9%
COc1ccccc1C(=O)NCCC(=O)NCc1cccs1
→ -6% | -9%
COc1ccc(OC)c(CNC(=O)C2CCN(S(=O)(=O)c3cn(C)cn3)CC2)c1
→ i | -15%
Cc1ccccc1S(=O)(=O)NCc1cccnc1
→ -17% | -3%
COc1ccc(CC(=O)NCCc2csc(-c3cccc(C)c3)n2)cc1
→ -4% | -9%
Cc1sc2nc(N)sc2c1C
→ x | -27%
COc1ccc(CCCNC(=O)C2(C)Cc3c(-c4ccc(NC(C)=O)cc4)ccnc3O2)cc1 (stereo not given)
→ -13% | u
COc1ccc(CCNC(=O)CCn2c(=O)c3ccccc3n(Cc3cc(C)ccc3C)c2=O)cc1OC
→ 1% | 5%
Cc1cccnc1NC(=O)c1ccc2c(c1)OCO2
→ -3% | -15%
Cc1ccc(C(=O)c2cc([N+](=O)[O-])ccc2N2CCN(C)CC2)cc1
→ x | -27%
N#C/C(=C\C=C\c1ccccc1)C(=O)NCc1ccco1
→ -29% | -12%
Cc1ccc2c(c1)C(c1ccncc1)=NNC(c1cccnc1)=N2
→ -4% | -11%
CCc1cccc(NC(=O)c2c(N3CCCC3=O)c3cc(C)ccc3n2C)c1
→ -14% | -21%
CCC(C)(C)NC(=O)CN(C(=O)C(=O)Nc1ccc2c(c1)OCCO2)N1CCOCC1
→ -15% | -13%
Cc1[nH]cnc1CSCc1ccc(Cl)cc1
→ -16% | -9%
COc1ccc(CNC(=O)c2n[nH]c3ccccc23)cc1OC
→ -21% | -11%
CC(NC(=O)C(C)N1CCN(S(=O)(=O)c2ccccc2)CC1)c1ccccc1 (stereo not given)
→ i | -17%
CC(=O)c1ccc(Oc2cc(-c3ccccc3)nc(-c3ccccc3)n2)cc1
→ -9% | -6%
Cc1cccc(C(=O)Nc2ccc(C(=O)OCc3cc(=O)n4c5c(sc4n3)CCCC5)cc2)c1
→ -20% | -13%
CC/C=C(/NC(C)=O)c1ccccc1
→ -19% | -10%
Cc1ccc(C(=O)OCc2cc(=O)n3ccsc3n2)s1
→ i | -21%
COc1ccc(CN2C[C@H](Sc3nc4ccccc4[nH]3)C[C@H]2C(=O)N(C)C)c2ccccc12
→ -17% | -1%
COCCN1C(=O)C(O)=C(C(C)=O)C1c1ccc(OC)c(OC)c1 (stereo not given)
→ x | -1%
COCC(=O)N1CCC(Oc2ccc(C(=O)N(C)Cc3nccs3)cc2)CC1
→ -10% | -9%
CON(c1nc(N(C)C)nc(N(C)C)n1)S(=O)(=O)c1ccccc1Cl
→ -15% | -9%
CSc1ncccc1C(=O)Nc1cccc(C)n1
→ i | -9%
CCc1ccc(NC(=O)c2ccc3c(=O)n4nc(Nc5ccccc5C)sc4nc3c2)cc1
→ u | u
O=C(NCC1OCCc2ccccc21)C1COc2ccccc2O1 (stereo not given)
→ -2% | 4%
Cc1cc(C)cc(OCC(=O)Nc2ccc(N3CCCC3)cc2)c1
→ i | -4%

Going on with the list:
Below each compound: Vaccinia mCherry | VACV Venus inh
CCC1=Nc2cc(C(=O)NCCCN3CCOCC3)ccc2Sc2ccccc21
→ -9% | -5%
Cc1ccc(C(C)C)c(OCc2nn(CC(=O)c3ccc(OC(F)F)cc3)c3[n+]2CCCCC3)c1
→ -13% | -13%
CS(=O)(=O)N(CC(=O)NCCSCc1c(F)cccc1Cl)c1cccc([N+](=O)[O-])c1
→ -16% | -17%
CNC[C@@H]1Oc2ccc(NC(=O)Nc3ccccc3)cc2C(=O)N([C@@H](C)CO)C[C@H]1C
→ i | -7%
CC[C@H](NC(=O)CC[C@H]1O[C@@H](n2cnc3c(NC(=O)c4ccccc4)ncnc32)[C@H](O)[C@@H]1O)c1ccccc1
→ 43%[activator] | 4%
Cc1nn(-c2ccc(F)cc2)c2sc(C(=O)OC3CCOC3=O)cc12 (stereo not given)
→ -8% | -4%
CCn1c(SCC(=O)Nc2nc3ccccc3s2)nc2c(c1=O)SC(C)C2 (stereo not given)
→ x | u
O=C(CN1C(=O)COc2ccc(S(=O)(=O)N3CCCCCC3)cc21)N1CCN(c2ccccc2)CC1
→ -18% | -9%
CCc1ccc(C(O)c2ncc(-c3cccc(OC)c3)[nH]2)cc1 (stereo not given)
→ 10% | -17%
COc1ccc(C#Cc2cccc(-c3nc(C(=O)NCc4ccc(Oc5ccccc5)cc4)cc4c3[C@@H](CCO)N(S(=O)C(C)(C)C)C4)c2)cc1OC (stereo not given in full)
→ 10% | 1%
COc1ccccc1CNc1cncnc1
→ i | -8%
COCCN(C)Cc1cn(-c2ccc(F)cc2F)nc1-c1ccccc1C
→ -20% | -12%
C/C(=N/NC(=O)c1ccc(Br)o1)C(C)C
→ -1% | -17%
CC(=O)c1ccc(-c2cnc3c(NC=O)cc(-c4ccc(N5CCN(C)CC5)cc4)cn23)cc1
→ -20% | u
Cc1cc(C(=O)NNC(C)Cc2ccccc2)no1 (stereo not given)
→ -1% | -10%
CSc1ncc(Cl)c(C(=O)Nc2ccccc2C)n1
→ 0% | -3%
O=C(N/N=C/c1ccc(OC(=O)c2ccc3c(c2)OCO3)cc1)c1cncc(Br)c1
→ -9% | -11%
O=C(O)c1ccccc1C(=O)NCCc1c(C(=O)O)[nH]c2ccc(F)cc12
→ -10% | 4%
COC(=O)c1cc(C(=O)OC)cc(N2C(=O)CC(N3CCN(c4ccccc4)CC3)C2=O)c1 (stereo not given)
→ -3% | 1%
CCc1nc2c(OCC3CCCCC3)cccn2c1N(C)C(=O)c1ccc(C)cc1
→ -24% | -7%
O=C(NCc1ccco1)C(c1ccccc1F)N(CC1CCCO1)C(=O)Cn1nnc2ccccc21 (stereo not given)
→ -13% | -2%
Cc1ccccc1N(CC(=O)NC1CCCCC1)C(=O)CCC(=O)Nc1nccs1
→ -4% | -9%
COC1CCN(C(=O)C2CCC(=O)N(CCc3cccc(F)c3)C2)CC1 (stereo not given)
→ -9% | -11%
CC(=O)N1CCCc2cc(S(=O)(=O)N3CCC(C(=O)NCc4ccccc4)CC3)ccc21
→ -3% | 0%
C=CCOc1ccccc1CNCCc1ccc(S(N)(=O)=O)cc1
→ i | 0%
CC1=CC2=NC(=O)CC(C)(C(=O)N(CC(=O)NC3CCCC3)c3ccccc3F)N2C=C1 (stereo not given)
→ -12% | 4%
CC(C)(C)OC(=O)C[C@H]1C/C=C\C[C@@H](CC(=O)NCCO)C(=O)NC[C@H](c2ccccc2)OC1=O
→ u | -14%
O=C(CN1C(=O)/C(=C2\SC(=S)N(CCS(=O)(=O)O)C2=O)c2ccccc21)Nc1cccc(Br)c1
→ -17% | -8%
COc1ccc(NC(=O)Cn2cnc3sc(C)c(S(=O)(=O)N4CCOCC4)c3c2=O)cc1Cl
→ i | -19%
CCOc1ccc(NS(=O)(=O)c2cc(NC(=O)c3ccc(C)cc3)ccc2Cl)cc1
→ u | u

(further entries)
Below each compound: Vaccinia mCherry | VACV Venus inh
CCOc1ccc(C(=O)Nc2ccc3oc(-c4cccnc4)nc3c2)cc1
→ i | -11%
CC1(C)CNC(=O)c2sc(NC(=O)c3ccccc3Cl)nc2C1
→ -2% | -1%
CCOc1ccc(OCCCCN(C)C)cc1
→ x | -6%
Cc1nc2ccccc2c(=O)n1-c1ccccc1C(F)(F)F
→ -5% | -14%
NC(=O)NCC1CC1
→ i | -17%
COc1ccc(CCNC(=O)c2c(O)c3ccccc3[nH]c2=O)cc1OC
→ -8% | 1%
Cc1ccc(S(=O)(=O)N2CC(C)N(C(=O)N3CCOCC3)C2C)cc1 (stereo not given)
→ -9% | -8%
COc1ccc(NC(=O)N(C)[C@H]2C[C@H]3c4[nH]c5ccc(-c6ccc(OC)cc6)cc5c4CCN3C[C@H]2[C@H](C)O)cc1
→ -29% | u
CC1=NN(C(N)=S)C(=O)C1N=Nc1cc(Cl)ccc1Cl (stereo not given)
→ i | -8%
CCCN1Cc2cccc(C(=O)Nc3ccc(S(=O)(=O)N4CCCCCC4)cc3)c2C1=O
→ i | -5%
CCN(CC)CCCNC(=O)C1CCN(S(=O)(=O)CC)CC1
→ -12% | -6%
O=C(NNC(=O)c1cc(-c2ccccc2)nc2ccccc12)c1csc(N2CCOCC2)n1
→ -5% | -9%
COc1ccc(CCN2C(=O)CC(NNC(=O)c3ccc(F)cc3)C2=O)cc1OC (stereo not given)
→ i | -7%
Cc1ccnc2nc(C(=O)OCC(=O)c3ccc(NC(=O)CC(C)C)cc3)nn12
→ -15% | 0%
CN(C)c1ccc(/C=N/NC(=O)CCCCCNC(=O)c2ccccc2)cc1
→ 6% | -8%
CCCS(=O)(=O)N1CCCC(C(=O)NCCCN2CCN(c3ccccc3F)CC2)C1 (stereo not given)
→ x | -15%
CC1CCN(Cc2c(C(=O)N/N=C/c3cc(Cl)ccc3O)nnn2-c2nonc2N)CC1
→ 5µM* | u
Cc1ccc(-c2ccc(CCC(=O)O)n2CC(=O)O)cc1
→ i | -7%
CCN(CC)C(=O)c1cccc(-c2csc(C(C)(O)c3ccc(OC)cc3)n2)c1 (stereo not given)
→ -12% | -25%
CCc1cccc(NC(=O)C2CCN(S(=O)(=O)c3ccc4[nH]c(=O)ccc4c3)CC2)c1
→ i | -16%
O=C(Nc1nc(-c2cc(F)ccc2F)cs1)c1ccccn1
→ -12% | -8%
O=C1c2ccc(Cl)cc2S(=O)(=O)c2cccc(C(=O)N3CCN(c4ncc(Br)cn4)CC3)c21
→ i | -13%
COc1cc(NC(=S)NCc2ccco2)c(OC)cc1Cl
→ i | 1%
Cc1ccc(Nc2c(-c3ccc(N4CCOCC4)cc3)nc3c(C)cccn23)cc1
→ -14% | -22%
COc1ccc(NC(=O)COc2cccc(-n3cnnn3)c2)cc1
→ -9% | -12%
COC(=O)C1CCN(C(c2cc(OC)c(OC)c(OC)c2)c2sc3nc(C)nn3c2O)CC1 (stereo not given)
→ -9% | -4%
CCCCN1CCNC[C@@H]1c1ccccc1
→ u | -7%
COc1ccccc1NC(=S)N1CCC(c2nc3cc(C)c(C)cc3[nH]2)CC1
→ -2% | -21%
CC(C)Cn1cnc2c(SCCc3ccccc3)nc(N)nc21
→ -7% | 0%
Cc1cc(C(=O)c2ccccc2)c(NC(=O)CN2CCOCC2)s1
→ -22% | -12%

Profiles, looked up by structure. Order of screens: Vaccinia mCherry | VACV Venus inh
Cc1ccnc2nc(C(=O)OCC(=O)c3ccc(NC(=O)CC(C)C)cc3)nn12 in the list: -15% | 0%
COc1ccc(NC(=O)N(C)[C@H]2C[C@H]3c4[nH]c5ccc(-c6ccc(OC)cc6)cc5c4CCN3C[C@H]2[C@H](C)O)cc1 in the list: -29% | u
CCOc1ccc(OCCCCN(C)C)cc1 in the list: x | -6%
Cc1ccc(-c2ccc(CCC(=O)O)n2CC(=O)O)cc1 in the list: i | -7%
CCCS(=O)(=O)N1CCCC(C(=O)NCCCN2CCN(c3ccccc3F)CC2)C1 (stereo not given) in the list: x | -15%

(more compounds)
Below each compound: Vaccinia mCherry | VACV Venus inh
COc1ccc(CCN(C(=O)c2ccco2)C(C(=O)NC2CCCC2)c2ccncc2)cc1OC (stereo not given)
→ i | -17%
O=C(Nc1ccc(F)c(Cl)c1)C1CC2CCC1C2 (stereo not given)
→ i | -12%
CCc1cc2c(cc3c(=O)n(CC(=O)NC(C)c4ccccc4)ncn32)s1 (stereo not given)
→ -22% | -14%
N/C(=N\OCc1ccc([N+](=O)[O-])cc1)c1ccccn1
→ i | -15%
O=C(Nc1ccc(F)cc1)C(c1ccccc1OC(F)(F)F)N1CCN(c2cccc(C(F)(F)F)n2)CC1 (stereo not given)
→ u | -25%
CC1CCC2C(=O)N(c3cc(Cl)ccc3OC(=O)c3ccco3)C(=O)C2C1 (stereo not given)
→ -10% | -11%
CCOc1cc(-c2sc(Nc3ccc(CC)cc3)n[n+]2-c2ccccc2)ccc1OC
→ 16% | 5%
Brc1ccc(-c2csc(N3CCCCCC3)n2)cc1
→ -25% | -2%
CC1CCC(NC(=O)CN(C)S(=O)(=O)c2cnc[nH]2)CC1 (stereo not given)
→ i | -2%
O=[N+]([O-])c1ccc(/C=N/NC(=S)Nc2ccccc2F)o1
→ -14% | -11%
COc1cccc(NC(=O)Cc2nnc(SCC(=O)NC3CCCCC3)n2C)c1
→ i | -14%
NC(=O)CSc1nnc(CSc2ncccn2)n1-c1ccccc1
→ -1% | -7%
CC(Sc1nncn1C)C(=O)Nc1ccccc1-c1ccccc1 (stereo not given)
→ -15% | -13%
CC(C)NC(=O)C1CCN(C2CCN(CC3CC=CCC3)CC2)CC1 (stereo not given)
→ -10% | -9%
Cc1ccc(-n2c(SCC(=O)Nc3c(C)cccc3C)nc(O)c(C)c2=O)cc1
→ -7% | -6%
Cc1oc2cc(O)ccc2c(=O)c1-c1nncn1-c1ccccc1
→ 0% | 22%
CC(=O)c1ccc(NC(=O)CC2Oc3ccc(C)cc3NC2=O)cc1 (stereo not given)
→ -14% | -6%
CC(C)OP(=O)(OC(C)C)C(NC(=O)c1cccc([N+](=O)[O-])c1)C(N)=O (stereo not given)
→ -20% | -6%

Part of the list above in another layout.
| mol | Vaccinia mCherry | VACV Venus inh |
| --- | --- | --- |
| O=C(Nc1ccc(F)c(Cl)c1)C1CC2CCC1C2 (stereo not given) | i | -12% |
| CCc1cc2c(cc3c(=O)n(CC(=O)NC(C)c4ccccc4)ncn32)s1 (stereo not given) | -22% | -14% |

The order is random, and some 0.82% of all compounds hit somewhere here.
